AmpC nodet inh = inhibitors of E. coli AmpC beta-lactamase without detergent; P00811; AmpC nitrocefin hydrolysis, absorbance 480 nm, no detergent; potencies from a single point are estimates; Potency, µM (series often up to 28.7 µM), for inactives: top-dose activity change, negative = inhibition; 71,000 compounds, 1.8% hits; active = falling curve, for most hits resting on a single point; inconclusive = weak or doubtful change; inactive = flat or rising curve; also: % of control where 0% means no effect; about half of the hits show no inhibition at the top dose; a quarter of the inactives give rising signals
Target sequence (P00811 whole entry, looked up): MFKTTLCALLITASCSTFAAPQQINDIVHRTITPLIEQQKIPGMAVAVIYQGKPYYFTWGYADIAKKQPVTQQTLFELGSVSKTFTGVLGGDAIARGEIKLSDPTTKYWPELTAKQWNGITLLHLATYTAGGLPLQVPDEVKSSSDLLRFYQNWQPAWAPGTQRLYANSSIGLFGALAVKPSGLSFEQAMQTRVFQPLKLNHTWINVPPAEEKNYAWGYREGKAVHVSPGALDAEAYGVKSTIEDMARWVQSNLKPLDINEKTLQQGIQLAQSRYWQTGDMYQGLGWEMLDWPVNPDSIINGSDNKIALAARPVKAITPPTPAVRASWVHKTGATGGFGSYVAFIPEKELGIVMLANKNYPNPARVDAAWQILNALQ
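AmpC, 20 mM phosphate pH 7.0; 15 min cpd preinc, RT; start with nitrocefin (800 uM stock); A480 kinetic read, 20 s intervals, 4 min. No-enzyme wells = negative control.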
The depositor's hits bear a star; ? = inconclusive; [ ] = dose if it differs, or a comment. Potency is read from the fitted curve at half-maximal effect. Some of the compounds tested; the hit share may differ from the screen's.

SMILES | AmpC nodet inh
O=C(Nc1cccc(F)c1)c1ccc2c(c1)OCO2 | 4%
COc1ccccc1CNc1nc2nc(C)cc(=O)n2[nH]1 | -11%
O=C(Cc1nc2ccccc2s1)c1ccc(O)cc1O | -17%
COCCNC(=O)CSc1nc2cc(OC)c(OC)cc2c(=O)n1Cc1ccc(OC)cc1 | 94%
Cc1cc2cc(CNC(=O)c3cccs3)ccc2n1C | -4%
Cc1cc2cc(C)c3nnc(SCC(=O)NCc4ccco4)n3c2cc1C | 130%
CC(=O)Nc1cccc(NC(=O)c2c(-c3ccccc3Cl)noc2C)c1 | 12%
Cc1cc(NC(=O)CSc2ccccc2)no1 | -12%
CS(=O)(=O)N1CCN(c2nnc(-c3ccccc3)c3ccccc23)CC1 | 36%
COc1ccccc1CC(=O)NCCc1ccc(S(N)(=O)=O)cc1 | -14%
O=C(CC(=O)Nc1ccccn1)Nc1ccccn1 | -7%
CCC(=O)Nc1ccc(NC(=O)c2cc3ccccc3o2)cc1 | ?
CCOc1ccc2[nH]c(=O)c(C(c3nnnn3CCOC)N3CCOCC3)cc2c1 (stereo not drawn) | 9%
CN1C(=O)C2CN(CCc3ccccc3)CNC2N(C)C1=O (stereo not drawn) | 7%
CCOC(=O)COc1ccc(S(=O)(=O)NCc2ccco2)cc1 | 5%
O=C(CCn1c(=O)oc2ccccc21)N1CCc2ccccc21 | -8%
CC(=O)C1=C(C)OC(N)=C(C#N)C1c1ccncc1 (stereo not drawn) | 0%
COC(=O)c1nonc1NCn1nnc2ccccc21 | -1%
N#CC1=C(N)N(c2ccccc2)C2=C(C(=O)CCC2)C1c1ccsc1 (stereo not drawn) | 2%
Cc1c(C(=O)OCC(=O)N2CC(C)OC(C)C2)oc2ccc(Br)cc12 (stereo not drawn) | 131%
Cc1cc(C)cc(N2C(=O)CC(n3ccnc3)C2=O)c1 (stereo not drawn) | 7%
CCCCCC1CC(CC(=O)O)C(=O)O1 (stereo not drawn) | 1%
C=C1CC[C@H]2C(C)(C)[C@H](O)CC[C@]2(C)[C@@H]1COc1ccc2ccc(=O)oc2c1 | 56%
O=C(O)[C@@H]1CCCN1Cc1c[nH]c2ccccc12 | 4%[5.75 µM]
O=C(c1cnccn1)N1CCC2(CC1)CCN(C(c1ccccc1)c1ccccc1)CC2 | 131%

Next compounds follow.
SMILES | AmpC nodet inh
Cc1cccc(NS(=O)(=O)c2cc(C(=O)OCC(=O)Nc3cc(C)on3)ccc2C)c1 | ?
Cc1oc(-c2ccc(Cl)cc2)nc1CN1CCCC(C(=O)NCCCN2CCCC2=O)C1 (stereo not drawn) | 123%
COC(=O)c1ccccc1NC(=O)CC#N | -3%
N#Cc1cccc(NC(=O)N2CC[C@@]3(CCCN(C(=O)c4cnccn4)C3)C2)c1 | 29%
CCCCOc1ccc(NC2=NC3(CCCCC3)N=C(N)N2)cc1 | -20%
COc1cccc(C(=O)Nc2ccc(NC(=O)C3CC3)cn2)c1 | -17%
CCCCCCC(=O)c1c(C)[nH]c(C(=O)OCC)c1C | 46%
CCOc1ccc(C2C(C(=O)c3ccco3)=C(O)C(=O)N2Cc2cccnc2)cc1 (stereo not drawn) | -13%
CCOC(=O)CSc1nnc(CNc2nc(-c3ccccc3)cs2)n1C | 138%
COc1cccc(C(=O)Nc2cc(NC(=O)c3ccco3)ccc2OC)c1 | 1%
C=CCc1c(C)nc(SC)nc1Nc1ccc(C(C)=O)cc1 | 40%
Cc1ccc2[nH]c(=O)c(C(c3nnnn3CC3CCCO3)N3CCOCC3)cc2c1 (stereo not drawn) | 17%
COCCCNC(=O)C1CCN(C(=O)c2cc3sccc3n2Cc2ccc(F)cc2)CC1 | 150%
COc1ccc2nc(NC3=NCN(CC4CCCO4)CN3)nc(C)c2c1 (stereo not drawn) | 6%
Cn1c(=O)c2c(nc(SCC(=O)Nc3ccccc3)n2C)n(C)c1=O | 2%
CCOc1cc(C2c3c(n[nH]c3C)C(=O)N2c2ccc(C)cc2)ccc1O (stereo not drawn) | 9%
CCc1ccc(-c2nc(CS(=O)CC(=O)NCc3cccnc3)c(C)o2)cc1 (stereo not drawn) | 66%
CCCn1c(C)nc2c(NCCCCN(C)C)nc(C)nc21 | 0%
CN1CCc2cc(O)cc3c2[C@H]1Cc1ccc(O)c(O)c1-3 | 0%
CCn1c(C)c(C(C)=O)c(NCc2ccccc2)nc1=S | -1%
COc1ccc(-c2nnc3ccc(SC(C(C)=O)C(C)=O)nn23)cc1OC | 8%
c1cnc(N2CC[N+]3(CCCC3)CC2)nc1 | -7%
COc1ccc(NC(=O)CCOc2ccccc2)c(OC)c1 | 22%
O=C(O)c1ccc(S(=O)(=O)NC2CCCc3ccccc32)cc1 (stereo not drawn) | -5%
O=C1c2ccccc2NC(c2ccco2)N1O (stereo not drawn) | -9%

Next part
SMILES | AmpC nodet inh
O=S(=O)(Cc1ccccc1)N1CCCC(c2nc(-c3ccc(F)cc3)no2)C1 (stereo not drawn) | 3%
O=C(C1CCCN(Cc2ccccc2Br)C1)N1CCCCC1 (stereo not drawn) | 1%
Cc1ccc2c(c1)[nH]c1c(=O)n(CCN3CCNCC3)cnc12 | -6%
Cn1c(SCC(=O)N2CCN(c3cccc(Cl)c3)CC2)nnc1-c1ccncc1 | 53%
Cc1cc(OCc2nc(N)nc(N)c2-c2ccc(Cl)c(Cl)c2)ccc1[N+](=O)[O-] | 11%[5.75 µM]
CCOC(=O)c1c(C)oc2cc(Br)c(OC(C)C(=O)OCC)cc12 (stereo not drawn) | 74%
COc1ccc(C(C)=O)c(Oc2nc(CN3CCOCC3)nc3scc(-c4cccs4)c23)c1 | 136%
Cc1[nH]nc2c1C(C1CC=CCC1)C(C#N)=C(N)O2 (stereo not drawn) | 2%
CC1=C(C(=O)NCc2ccccc2)C(c2cccs2)n2ncnc2N1 (stereo not drawn) | -8%
Cc1nc(CCNS(=O)(=O)c2cccs2)cs1 | -4%
O=C(CSc1nnnn1-c1ccccc1)Nc1nc(-c2ccccc2)ns1 | ?
Cc1ccc(C2C(C#N)=C(N)SC(N)=C2C#N)o1 | -24%
CC(C)OC(=O)CSc1nc2ncccc2[nH]1 | 4%
CCCc1cc(C(=O)Nc2ccccc2C(=O)OC)no1 | -3%
COc1cc(CNCc2ccc(OC)c(OC)c2OC)cc(OC)c1 | -4%
CCOC(=O)c1c(NC(=O)c2ccco2)sc(C(=O)N2CCCC2)c1C | 8%
O=C1c2ccccc2NC(c2ccncc2)N1c1ccccn1 (stereo not drawn) | 8%
Cc1sc(NC(=O)CSc2nnc(-c3ccccc3)o2)c(C#N)c1C | 4%
COCCn1c(=NC(=O)CSC(C)=O)sc2cc(F)ccc21 | 14%
COc1ccc(OC)c(-n2cc3c(=O)n(C)c(=O)n(C)c3c2)c1 | 12%
COc1ccc2oc(C)c(C(=O)Cn3ccnc3)c2c1 | 22%
COCCn1c(=O)[nH]c2cc(C(=O)NCCc3ccc(OC)c(OC)c3)ccc2c1=O | 24%
O=C(O)C1CSC(c2ccccc2)N1C(=O)c1ccco1 (stereo not drawn) | -9%
CCOc1ccc(CNC(=O)NS(=O)(=O)c2ccc(OC)cc2)cc1 | 0%
CCN(CC)c1cc(C)c2cc(NC(=O)CNC(C)=O)ccc2n1 | -3%

The list continues.
SMILES | AmpC nodet inh
Cc1ccc(OCc2nnc(SCc3nc4ccccc4[nH]3)n2Cc2ccco2)cc1 | 20%
O=C1C=C(NCc2ccncc2)CC(c2ccccc2)C1 (stereo not drawn) | -12%
COc1ncc2nc(-c3cccs3)c(=O)n(Cc3cccs3)c2n1 | 6%
CC(=O)[C@@H]1[C@@H]2C(=O)N(Cc3ccccc3)C(=O)[C@@H]2C2c3ccccc3C=CN21 (stereo partly drawn) | 4%
Cc1ccc(C(C(=O)NC2CCCC2)N(Cc2cccs2)C(=O)CNC(=O)c2cccs2)o1 (stereo not drawn) | -4%
CN1[C@@H]2CC[C@H]1CC(OC(=O)[C@@H](CO)c1ccccc1)C2 (stereo partly drawn) | 58%
CN(Cc1ccco1)c1ncncc1-c1cccc(NS(C)(=O)=O)c1 | 3%
CN1CCC2(CC1)Nc1nc(SCc3ccc(Cl)cc3)nn1C1=C2CN(C)CC1 | 32%
O=C(CSc1nncs1)NCc1ccc2c(c1)OCO2 | -6%
CC1(C)Cc2c(c(=S)nc(-c3ccccc3)n2CCCN2CCOCC2)CO1 | -12%
Cc1ccccc1Cn1c(=O)c2c(nc3n2CCCN3Cc2ccccc2)n(C)c1=O | 93%
COc1ccc(S(=O)(=O)N(CC(=O)NC2CC2)c2ccc(C)cc2)cc1OC | 32%
CCCCn1c(N2CCC(Cc3ccccc3)CC2)nc2c1c(=O)[nH]c(=O)n2C | 121%
Cc1ccccc1CN1CCN(CC(=O)NCCCN2CCN(c3ccc(F)cc3)CC2)C1=O | 115%
COc1ccccc1N1CCN(C(=O)COc2ccc(Cl)cc2)CC1 | 101%
COc1ccccc1-c1cncnc1Nc1ccccc1 | 16%
Cn1c(SCc2ccccc2F)nnc1-c1cnccn1 | -6%
CC(=O)Nc1cccc(Oc2cc(C#N)c(C#N)cc2N2CCOCC2)c1 | 13%
O=C(CCCn1c(SCC(=O)NCC2CCCO2)nc2ccccc2c1=O)NCC1CCCO1 (stereo not drawn) | 28%
COc1ccc(OCCSc2ncnc3nc[nH]c23)cc1 | 4µM*[single pt active]
CC(C)c1ccc2oc(=O)cc(CN3CCN(c4ccc(F)cc4)CC3)c2c1 | 25%
CCN(CCNC(=O)C1CCCN(Cc2nc(-c3ccc(OC)cc3)oc2C)C1)c1ccccc1 (stereo not drawn) | 128%
Cc1sc2nc(CN3CCN(S(=O)(=O)c4cccc5nonc45)CC3)[nH]c(=O)c2c1C | 74%
N=c1c(C(=O)NCc2ccc(F)cc2)cc2c(=O)n3ccccc3nc2n1Cc1ccco1 | 63%
NCCCP(=O)(O)O | 15%

Further entries
SMILES | AmpC nodet inh
CC(=O)c1c(C)nc(C)nc1NC(=O)C(C)C | 1%
CCOc1ccccc1N1C(=O)CC(Sc2ncccc2C(=O)O)C1=O (stereo not drawn) | 19%
CCOc1ccc(-c2cc(C(=O)O)c3ccccc3n2)c(OCC)c1 | -10%
COCCSc1nnc(NC(=O)Cc2ccccc2OC)s1 | 0%
COc1ccc(S(=O)(=O)Nc2cc(C)ccn2)cc1OC | -3%
COc1ccc(S(=O)(=O)NCC(c2cccnc2)N2CCN(c3ccc(F)cc3)CC2)cc1C (stereo not drawn) | 86%
COC(=O)c1c(NC(=O)CN2CCN(C(=O)c3ccco3)CC2)c2cc(C)ccc2n1C | 111%
Clc1ccc2c(NCCNc3ccnc4cc(Cl)ccc34)ccnc2c1 | -13%[5.75 µM]
COC(=O)Cc1c(C)c2ccc(OCC(C)=O)c(C)c2oc1=O | 9%
CCOCCCNC(=O)c1cccs1 | 5%
CC(=O)OCCOc1nc(N(C)C)nc(N(C)C)n1 | 7%
CCOC(=O)N1CCN(C(=O)c2ccc3c(SCC(=O)O)c4c(nc3c2)CCCC4)CC1 | 99%
COc1ccc(-c2cc(OC)c3c(C)oc(C)c3c(=O)c2)cc1OC | 124%
COC(=O)c1[nH]c2ccc(F)cc2c1NC(=O)C1=COCCO1 | -5%
CCCOc1ccc(C2C(C(=O)c3ccc(C)o3)=C(O)C(=O)N2CCCn2ccnc2)cc1 (stereo not drawn) | 9%
N#C/C(=C(/O)COC(=O)CCC1CCCCC1)c1nc2ccccc2[nH]1 | -22%
O=C(Cn1nnc(-c2ccccc2)n1)NCc1ccccc1 | -8%
CCOc1ccccc1N1CCN(c2nc(N)c(C#N)c(CC#N)c2C#N)CC1 | 30%
COc1ccc(-c2cn3cccnc3n2)cc1NC(=O)C1CC1 | -1%
COc1ccccc1NC(=O)CN1C(=O)C(C)Oc2ccccc21 (stereo not drawn) | -2%
COc1ccccc1N1CCN(c2nc(-c3ccccc3)cc(C(F)(F)F)n2)CC1 | 3%
COc1ccc(CCNS(=O)(=O)c2ccc(C(=O)NCc3ccco3)cc2)cc1OC | 12%
Cc1cc(N2C(=O)C3CCCN3C2c2ccc(Cl)c(Cl)c2)no1 (stereo not drawn) | 18%

Molecules from the list above that have bromine, in the order listed:
SMILES | AmpC nodet inh
Cc1c(C(=O)OCC(=O)N2CC(C)OC(C)C2)oc2ccc(Br)cc12 (stereo not drawn) | 131%
O=C(C1CCCN(Cc2ccccc2Br)C1)N1CCCCC1 (stereo not drawn) | 1%
CCOC(=O)c1c(C)oc2cc(Br)c(OC(C)C(=O)OCC)cc12 (stereo not drawn) | 74%

Filtered by structure, the entries above with an NH in an aromatic ring.
SMILES | AmpC nodet inh
COc1ccccc1CNc1nc2nc(C)cc(=O)n2[nH]1 | -11%
CCOc1ccc2[nH]c(=O)c(C(c3nnnn3CCOC)N3CCOCC3)cc2c1 (stereo not drawn) | 9%
O=C(O)[C@@H]1CCCN1Cc1c[nH]c2ccccc12 | 4%[5.75 µM]
CCCCCCC(=O)c1c(C)[nH]c(C(=O)OCC)c1C | 46%
Cc1ccc2[nH]c(=O)c(C(c3nnnn3CC3CCCO3)N3CCOCC3)cc2c1 (stereo not drawn) | 17%
CCOc1cc(C2c3c(n[nH]c3C)C(=O)N2c2ccc(C)cc2)ccc1O (stereo not drawn) | 9%
Cc1ccc2c(c1)[nH]c1c(=O)n(CCN3CCNCC3)cnc12 | -6%
Cc1[nH]nc2c1C(C1CC=CCC1)C(C#N)=C(N)O2 (stereo not drawn) | 2%
CC(C)OC(=O)CSc1nc2ncccc2[nH]1 | 4%
COCCn1c(=O)[nH]c2cc(C(=O)NCCc3ccc(OC)c(OC)c3)ccc2c1=O | 24%
Cc1ccc(OCc2nnc(SCc3nc4ccccc4[nH]3)n2Cc2ccco2)cc1 | 20%
CCCCn1c(N2CCC(Cc3ccccc3)CC2)nc2c1c(=O)[nH]c(=O)n2C | 121%
COc1ccc(OCCSc2ncnc3nc[nH]c23)cc1 | 4µM*[single pt active]
Cc1sc2nc(CN3CCN(S(=O)(=O)c4cccc5nonc45)CC3)[nH]c(=O)c2c1C | 74%
COC(=O)c1[nH]c2ccc(F)cc2c1NC(=O)C1=COCCO1 | -5%
N#C/C(=C(/O)COC(=O)CCC1CCCCC1)c1nc2ccccc2[nH]1 | -22%

Screening results deposited in PubChem BioAssay by National Center for Advancing Translational Sciences (NCATS).
